Arbovirus anti = antivirals against arbovirus infection | inhibition, % at 10 µM | arbovirus infection cell-based antiviral screen | hit rate 0.37% among 200,000;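 active = inhibition from about 30%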;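 also: bluetongue infection of BSR cells; cell survival read as ATP light after 72 h; 0% = infected wells without compound and 100% = uninfected wells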
YopH PTP inh = blocks Yersinia enterocolitica YopH tyrosine phosphatase; fluorescence Ex485/Em525; inhibition, %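 (about 10 µM by stock and volumes)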; hit rate 0.16% among 140,000; AID 898;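 active = inhibition of 50% or more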;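 also: controls were vehicle for no effect and minimum signal wells for full effect; inactives centre near -20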
Mtb growth = M. tuberculosis H37Rv growth inhibitors, H37Rv strain (AID 1626); M. tuberculosis H37Rv growth inhibition; higher % means a stronger effect; one-dose inhibition, % at 10 µM; IC50 in µM for titrated hits; hit rate 0.95% among 220,000;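 active = confirmed in a dose series; inconclusive = inhibition above 80% but not taken into the dose series; inactive = below 80% or under 30% at every dose of the series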;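 also: bacteria incubated seven days before Alamar blue readout; 0% = bacteria only wells and 100% = bacteria with antibiotic wells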
Mtb bLac sens = beta-lactam sensitization of Mtb H37Rv | M. tuberculosis H37Rv growth with meropenem, percent inhibition; hits of this screen are not shown here | inhibition, % at 25 µM | hit rate 0.27% among 330,000 | AID 434955;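 active = about 74% or more and at least 40 points above the plate without the antibiotic, then above 30% in a dose series; inconclusive = first-round hits that could not be retested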;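 also: growth measured after seven days incubation then overnight dye step; 0% = bacteria only wells and 100% = bacteria with antibiotic; twin plates without the antibiotic show which effects depend on it; some results filed as inactive read as strong as hits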
RecA splice inh = Mtb RecA intein splicing inhibition; P9WHJ3; cell-free RecA intein splicing, fluorescence; inhibition, %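 (about 9 µM by stock and volumes)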; hit rate 0.75% among 290,000; AID 2221; in the data active = inhibition above about 30%; inconclusive = no clear call, values can overlap the other calls;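 also: 0% = vehicle wells and 100% = reference inhibitor control wells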
Target sequence (P9WHJ3 whole entry, looked up, canonical isoform): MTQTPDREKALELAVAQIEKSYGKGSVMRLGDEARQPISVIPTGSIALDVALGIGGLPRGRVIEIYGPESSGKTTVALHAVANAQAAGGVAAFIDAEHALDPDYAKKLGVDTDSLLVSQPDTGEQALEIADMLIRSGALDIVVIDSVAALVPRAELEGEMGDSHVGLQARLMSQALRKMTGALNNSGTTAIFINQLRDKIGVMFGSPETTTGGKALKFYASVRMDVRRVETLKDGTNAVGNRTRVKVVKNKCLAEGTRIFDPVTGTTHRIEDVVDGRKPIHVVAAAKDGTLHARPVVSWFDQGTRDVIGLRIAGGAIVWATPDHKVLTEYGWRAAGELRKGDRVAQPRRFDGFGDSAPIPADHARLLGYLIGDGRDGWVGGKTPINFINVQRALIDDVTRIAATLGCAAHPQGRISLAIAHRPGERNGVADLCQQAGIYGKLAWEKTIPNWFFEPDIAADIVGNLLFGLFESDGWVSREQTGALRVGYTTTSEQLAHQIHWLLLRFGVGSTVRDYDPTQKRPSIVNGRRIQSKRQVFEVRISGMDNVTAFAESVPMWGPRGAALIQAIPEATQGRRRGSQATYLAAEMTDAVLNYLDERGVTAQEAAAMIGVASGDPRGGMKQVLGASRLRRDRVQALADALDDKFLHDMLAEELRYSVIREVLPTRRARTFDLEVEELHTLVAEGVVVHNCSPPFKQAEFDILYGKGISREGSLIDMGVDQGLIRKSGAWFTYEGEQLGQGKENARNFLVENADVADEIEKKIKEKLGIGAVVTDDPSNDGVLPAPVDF
Arbovirus anti repeat = recorded beside Arbovirus anti, whose call it bears; inhibition, %; measured here: 10K subset replicate screen; many hits read low in the repeat;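 first of two repeat runs on a subset; 0% = infected and 100% = uninfected wells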
* hit, by the source's call. An excerpt; count on the stated rates, not on these rows.

CCc1nnc(NC(=O)CCn2cnc3ccccc3c2=O)s1 was read as Arbovirus anti 11.3, Mtb growth 8.0%, Mtb bLac sens -8.8 and RecA splice inh 4.6.
Screening Cc1cc(/C=N\NC(=O)COc2cccc3cccnc23)c(C)n1-c1ccccc1 returned Arbovirus anti 20.1, YopH PTP inh -20.8, Mtb growth -1.3%, Mtb bLac sens -7.9 and RecA splice inh 1.4.
For CC(NC(=O)c1ccccc1)c1nnc(SCc2nc3ccccc3c(=O)[nH]2)n1C (stereo not given) the results were Arbovirus anti 2.3, Mtb growth -1.4%, Mtb bLac sens 3.0 and RecA splice inh -1.0.
Screening CCn1c(NC(C)=O)nc2ccccc21 returned Arbovirus anti 2.0, YopH PTP inh -16.8, Mtb growth 2.9%, Mtb bLac sens 71.5 and RecA splice inh -1.8.
Screening Clc1ccc(Oc2nc3ccccc3n3cccc23)cc1 returned Arbovirus anti -17.0, YopH PTP inh -34.4, Mtb growth 1.5%, Mtb bLac sens 7.5 and RecA splice inh -1.8.
`COCCN1C(=O)c2cc(C(=O)Nc3ccc(OC)c(OC)c3)ccc2C1Nc1ccc(OC)c(OC)c1` (stereo not given) gave Arbovirus anti -2.7, Mtb growth 4.5%, Mtb bLac sens 1.7 and RecA splice inh -0.4.
COc1ccc(-c2ccc(/C=C(\NC(=O)c3ccccc3)C(=O)N3CCOCC3)o2)cc1 was read as Arbovirus anti -6.1, Mtb growth -6.4%, Mtb bLac sens -0.8 and RecA splice inh -2.2.
CC(=C/c1ccco1)/C=N/N1CCN(c2ccccc2)CC1 was read as Arbovirus anti -1.4, YopH PTP inh -2.0, Mtb growth 3.8%, Mtb bLac sens 8.6 and RecA splice inh 4.7.
For CN(Cc1cccs1)C(=O)CNC(=O)c1ccco1 the results were Mtb bLac sens -3.4 and RecA splice inh 2.4.
For Cc1cccc(OCC(=O)Nc2ccc3c(c2)OCO3)c1C the results were Arbovirus anti -7.2, YopH PTP inh -10.1, Mtb growth -1.2%, Mtb bLac sens 2.1, RecA splice inh 4.2 and Arbovirus anti repeat -6.3.
COc1cc2c(cc1N/C=C(\C#N)c1nc(-c3ccc(F)cc3)cs1)oc1ccccc12 was read as Mtb growth 5.5%, Mtb bLac sens 5.6 and RecA splice inh -10.6.
`C=C(C)CNC(=S)NNC(=O)c1ccco1` gave Arbovirus anti 2.7, YopH PTP inh -10.1, Mtb growth -3.2%, Mtb bLac sens -1.2 and RecA splice inh -2.6.
`COc1ccccc1-c1nnc(SCC(=O)Nc2c(Cl)cccc2Cl)o1` gave Arbovirus anti -10.1, YopH PTP inh -45.5, Mtb growth -3.3%, Mtb bLac sens -21.8 and RecA splice inh -2.5.
`COc1cccc(C(c2nnnn2CCc2ccccc2)N2CCN(c3ccccc3)CC2)c1OC` (stereo not given) gave Arbovirus anti 7.8, YopH PTP inh -22.8, Mtb growth -0.5%, Mtb bLac sens -3.7 and RecA splice inh 9.2.
For NC(=O)COC(=O)c1cc(Cl)cc(Cl)c1N the results were Arbovirus anti 2.7, Mtb growth 3.3%, Mtb bLac sens -6.3 and RecA splice inh -3.8.
`COc1ccc(CNCC(=O)N2CCC3(CC2)OCCO3)cc1` gave Arbovirus anti -5.2, YopH PTP inh -25.1, Mtb growth -4.5%, Mtb bLac sens -2.3 and RecA splice inh 2.5.
For CC1=C(C(=O)OC(C)C)C(c2ccc(Br)s2)NC(=O)N1 (stereo not given) the results were Arbovirus anti 0.2, YopH PTP inh -66.6, Mtb growth 0.4%, Mtb bLac sens 3.6 and RecA splice inh -5.3.
For COc1ccc2cc3cc(C(=O)Nc4ccccc4N4CCN(C)CC4)oc3nc2c1 the results were Arbovirus anti 1.0, YopH PTP inh -24.0, Mtb growth inconclusive, Mtb bLac sens 97.8 and RecA splice inh 0.0.
`COC(=O)c1cc(NS(=O)(=O)c2ccc(NCc3cccnc3)c(N)c2)cc(C(=O)OC)c1` gave Arbovirus anti 0.5, YopH PTP inh -48.4, Mtb growth -1.7%, Mtb bLac sens 4.2 and RecA splice inh -0.7.
Screening CCN(CC)CCNC(=O)C1c2cc(OC)c(OC)cc2C(=O)N2CCc3ccccc3C12 (stereo not given) returned Arbovirus anti 5.4, YopH PTP inh -14.6 and Mtb bLac sens 5.1.
For COc1cc(OC)cc(-n2nc(C(=O)N3CCC4(CC3)OCCO4)c3ccccc3c2=O)c1 the results were Arbovirus anti -3.4, YopH PTP inh -16.5, Mtb growth 9.6% and Mtb bLac sens 5.7.
Screening O=C(NC1CC2CCC1C2)c1ccc(CN2CCOCC2)cc1 (stereo not given) returned Arbovirus anti 8.8, YopH PTP inh -10.6, Mtb growth -9.0%, Mtb bLac sens 0.7 and RecA splice inh 2.7.
For COc1ccc(-c2cc(C)nc3nc(N)nn23)cc1 the results were Arbovirus anti -6.8, YopH PTP inh -18.9, Mtb growth -6.0% and Mtb bLac sens -5.9.
CCOc1ccc(Nc2n[nH]c(=S)s2)cc1 was read as Arbovirus anti -12.5, YopH PTP inh -45.6, Mtb growth 11.1%, Mtb bLac sens 9.1 and RecA splice inh -1.9.
Screening Nc1nc(Nc2ccccc2)nc(N2CCOCC2)c1[N+](=O)[O-] returned Arbovirus anti -7.4, YopH PTP inh -25.7, Mtb growth 2.1%, Mtb bLac sens 2.0 and RecA splice inh 0.3.
Screening Cc1ccc(S(=O)(=O)N(C)c2ccc3c(ncn3C)c2[N+](=O)[O-])cc1 returned Mtb bLac sens -1.5 and RecA splice inh -1.5.
Screening Cc1cccc(C)c1OCc1cc(C(=O)N2CCN(c3ccccc3)CC2C)no1 (stereo not given) returned Mtb bLac sens inconclusive and RecA splice inh 3.7.
`CC1(C)CC(=O)C=C(Nc2cccc(Cl)c2Cl)C1` gave Mtb bLac sens 80.1 and RecA splice inh 1.2.
`CCOC(=O)Cc1csc(NC(=O)/C=C/c2ccc(Cl)cc2)n1` gave Mtb growth -3.4%, Mtb bLac sens 1.2 and RecA splice inh 1.4.
COc1cccc(C2C(C#N)=C(N)N(N(C)C)C3=C2C(=O)CC(C)(C)C3)c1OC (stereo not given) was read as Mtb bLac sens 3.5 and RecA splice inh -2.2.
`CCOC(=O)c1cc(NC(=O)NCc2ccco2)c(C)nc1C` gave Arbovirus anti 11.1, YopH PTP inh -44.1, Mtb growth -7.4%, Mtb bLac sens -11.3, RecA splice inh -1.0 and Arbovirus anti repeat 2.4.
For CC1CCN(C(=O)CN(c2ccc(Oc3ccccc3)cc2)S(C)(=O)=O)CC1 the results were Arbovirus anti 4.8, YopH PTP inh -15.7, Mtb growth -5.1%, Mtb bLac sens -4.9 and RecA splice inh 1.3.
Cc1cc(NC(=O)CN2CCCCC2)no1 was read as Arbovirus anti 15.0, Mtb growth -9.2%, Mtb bLac sens -5.5 and RecA splice inh -2.8.
Screening COc1cc(C(C#N)N2CCOCC2)ccc1O (stereo not given) returned Arbovirus anti 16.8, YopH PTP inh -20.3, Mtb growth -6.6% and Mtb bLac sens -10.9.
`Cc1[nH]c2ccccc2c1C(=O)COc1ccccc1F` gave Arbovirus anti 0.5, Mtb growth 4.4% and Mtb bLac sens -4.2.
`Cc1ccc(Cn2c(O)c(N=O)c3ccccc32)cc1` gave Arbovirus anti 2.7, Mtb growth 1.0%, Mtb bLac sens -12.6 and RecA splice inh 5.1.
For COc1ccc(Cl)cc1C(=O)NCC(=O)OCc1ccccc1 the results were Mtb bLac sens 9.7 and RecA splice inh 0.2.
O=C(NC1CCCC1)C1CCN(c2nccs2)CC1 was read as Arbovirus anti 1.5, YopH PTP inh -5.4, Mtb growth -7.8%, Mtb bLac sens 2.8 and RecA splice inh -0.7.
For CCCCn1c(=O)c(CCC(=O)OCC(=O)NCc2ccc(OC)c(OC)c2)nc2ccccc21 the results were Arbovirus anti 19.1, Mtb growth -2.2%, Mtb bLac sens -0.6 and RecA splice inh -1.5.
`CC(=O)COc1ccc2oc(=O)cc(-c3cc4ccccc4o3)c2c1` gave Mtb bLac sens 52.7 and RecA splice inh -3.8.
For COc1ccc(S(=O)(=O)Nc2cccc(F)c2)cc1C the results were Arbovirus anti -1.7, Mtb growth 5.3%, Mtb bLac sens 0.6 and RecA splice inh -3.0.
For CC(C)COc1ccc(/C(=N/O)c2ccccc2)cc1 the results were Arbovirus anti 1.1, YopH PTP inh -6.9, Mtb growth 4.0%, Mtb bLac sens 3.2 and RecA splice inh 0.5.
CC(=O)Nc1ccc(S(=O)(=O)N2CCC(C(=O)Nc3nccs3)CC2)cc1 was read as Mtb bLac sens -7.0 and RecA splice inh 5.8.
For Cc1cc(C(=O)COC(=O)C2=NNC(=O)CC2)c(C)n1-c1cccc(C(F)(F)F)c1 the results were Arbovirus anti -4.3, YopH PTP inh -7.7, Mtb growth -1.4%, Mtb bLac sens 5.9 and RecA splice inh 3.9.
O=C(COC(=O)c1cc(-c2ccccn2)nc2ccccc12)Nc1ncc(C(F)(F)F)cc1Cl was read as Mtb growth 0.2%, Mtb bLac sens 17.3 and RecA splice inh -2.1.
For COc1ccccc1C(=O)NCCC(=O)N(C)CC(=O)Nc1ccc(C)cc1 the results were Mtb bLac sens -4.3 and RecA splice inh -2.3.
Screening Cc1cc(Nc2ccccc2)nc(N2CCOCC2)n1 returned Arbovirus anti 1.9, YopH PTP inh -9.4, Mtb growth -5.2%, Mtb bLac sens 5.2 and RecA splice inh 1.1.
`O=[N+]([O-])c1cccc(/C=C/c2ccncc2)c1` gave Mtb growth -0.1%, Mtb bLac sens 1.7 and RecA splice inh -4.9.
`O=P(Nc1ccccc1Cl)(c1ccccc1)c1nc2c(s1)CCCC2` (stereo not given) gave Arbovirus anti -2.9, YopH PTP inh -31.0, Mtb growth -6.0%, Mtb bLac sens -12.6 and RecA splice inh 4.7.
Screening CCOP(=O)(OCC)C(NC(=O)/C=C/c1ccc(OC)cc1)c1ccccc1 (stereo not given) returned Arbovirus anti 4.2, Mtb growth -1.5%, Mtb bLac sens 6.5 and RecA splice inh 0.6.
Screening O=C(NCC1OCCc2ccccc21)c1ccc(NC(=O)c2ccc(Cl)cc2Cl)cc1 (stereo not given) returned Arbovirus anti -17.5, YopH PTP inh -10.0, Mtb growth 36.0%, Mtb bLac sens 50.6 and RecA splice inh -2.9.
Screening COc1ccc2nc(CNC(=O)C3CCC(=O)N(CCc4ccccc4)C3)[nH]c2c1 (stereo not given) returned Mtb bLac sens -5.4 and RecA splice inh -1.8.
COc1ccc(C=O)cc1CSc1nnc(COc2cccc3cccnc23)o1 was read as Arbovirus anti 1.4, YopH PTP inh -59.9, Mtb growth -2.4%, Mtb bLac sens 7.0 and RecA splice inh 4.8.
COc1ccc(CN2CC[C@H]3C=CC[C@@H](C(=O)N4CCOCC4)[C@H]3C2=O)cc1OC was read as Mtb growth -7.8%, Mtb bLac sens 15.2 and RecA splice inh 0.7.
For O=C1C=C(Nc2ccc(Cl)cc2)CC(c2ccco2)C1 (stereo not given) the results were Arbovirus anti -21.4, YopH PTP inh -4.4, Mtb growth -1.1%, Mtb bLac sens -6.9 and RecA splice inh -0.3.
For Cc1ccc(S(=O)(=O)N2Cc3ccccc3CC2C(=O)Nn2cnnc2)cc1 (stereo not given) the results were Arbovirus anti 0.6, YopH PTP inh -57.9, Mtb growth -2.4%, Mtb bLac sens 4.7 and RecA splice inh 8.1.
For CC(C)(C)NC(=O)C(=O)NNC(=O)c1cccc(F)c1 the results were Arbovirus anti 2.3, Mtb growth 2.7%, Mtb bLac sens 5.6 and RecA splice inh -1.6.
`O=C1CCN(C(=O)C(Cl)Cl)N1` gave Arbovirus anti 0.2, Mtb growth -3.5%, Mtb bLac sens 2.9 and RecA splice inh 1.9.
For Cc1cnc(NC(=O)CSc2nnc(-c3ccccc3)o2)s1 the results were Arbovirus anti -12.9, YopH PTP inh 22.0, Mtb growth 16.9%, Mtb bLac sens 59.2 and RecA splice inh 3.3.
COc1ccc(Nc2nc(-c3ccccc3F)nc3ccccc23)cc1OC was read as Mtb bLac sens 11.3 and RecA splice inh 4.9.
O=C(Nc1ccc(F)cc1)N1CCCN(c2nccc(C(F)(F)F)n2)CC1 was read as Mtb growth -1.5%, Mtb bLac sens -8.1 and RecA splice inh 2.9.
N#CC1(c2ccccc2)CCCN1C(=O)c1ccc(Br)cc1 (stereo not given) was read as Arbovirus anti -5.8, YopH PTP inh -10.1, Mtb growth -0.2% and Mtb bLac sens 3.4.
Cc1oc(-c2ccc(Cl)cc2)nc1CS(=O)CC(=O)NC1CC1 (stereo not given) was read as Mtb bLac sens -1.0 and RecA splice inh -7.7.
